# Source: PubChem BioAssay (National Center for Advancing Translational Sciences (NCATS))
# RE007 growth inh = less growth of the S. pombe RE007 Vpr strain. Potency, µM (titrated, usually from 92.2 µM), inactives show at the highest dose activity change, negative = less growth. S. pombe RE007 Vpr strain, BacTiter-Glo ATP luminescence, 24 h; control for the full effect not named in the record. 360,000 compounds, 0.21% hits; active = well fitted falling curve with a large enough effect; inconclusive = small, poorly fitted or top-dose-only effect; inactive = no such curve, though single readings can be large or run the other way;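 further: on the % scale 0 is the no-effect control and ±100 the full control effect; nearly all actives have a fitted effect of over 50% in size; the assay follows cell death caused by Vpr and the record does not say whether a fall means rescue or toxicity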
#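 Fission yeast strain RE007, carrying one chromosomally integrated HIV-1 vpr copy, was seeded at OD 0.01 in PMG+AL medium with 23 nL pinned compound. After 24 h at 30 °C and 99% humidity, viability was read by BacTiter-Glo luminescence.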
# 2A StopGo = lowers the luciferase signal of an FMDV 2A StopGo reporter; Potency, µM (series often up to 57.9 µM), inactives show at the top dose signal change, negative = less light; 410,000 compounds, 1.2% hits; AID 1159524; human cells with a luciferase reporter of 2A StopGo recoding; control for the full effect not named in the record; active = well fitted falling curve with a large enough effect; inconclusive = small, poorly fitted or top-dose-only effect; inactive = no such curve, though single readings can be large or run the other way; tested in HEK293T cells; further: on the % scale 0 is the no-effect control and ±100 the full control effect; nearly all actives have a fitted effect of over 45% in size; luciferase light after 4 h
# SARS PLpro yeast = inhibitors of SARS-CoV papain-like protease in yeast. S. cerevisiae expressing SARS-CoV PLpro, growth rescue; control for the full effect not named in the record. Potency, µM (series often up to 32.9 µM), for the others: at the top dose activity, positive = growth rescue. 330,000 compounds, 0.19% hits. AID 485353; active means well fitted rising curve with a large enough effect; inconclusive means small, poorly fitted or top-dose-only effect; inactive means no such curve, though single readings can be large or run the other way; further: 0% is about no effect; nearly all actives have a fitted effect of over 55% in size; growth read by luminescence after 48 h
# NS1 function inh = influenza NS1 inhibition; S. cerevisiae slowed by influenza A NS1, growth recovery by OD600; Potency, µM (series often up to 46.1 µM), for the others: top-dose activity, positive = more growth; 270,000 compounds, 0.4% hits; AID 2326; active means well fitted rising curve with a large enough effect; inconclusive means small, poorly fitted or top-dose-only effect; inactive means no such curve, though single readings can be large or run the other way; further: nearly all actives have a fitted effect of over 50% in size
#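 Recovery from NS1-induced slow growth read by OD600 in budding yeast switched to galactose assay medium (pH 6.0, -URA) at 1:100 dilution. Compound 23 nl per well; the matching strain lacking NS1 serves as control.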
# Marburg entry inh = inhibitors of Marburg virus binding or cell entry | Marburg virus pseudotyped entry inhibition, cell reporter; control for the full effect not named in the record; about a third of the inactives were read at about 46 µM | Potency, µM (doses to about 37.8 µM), for inactives: at the top dose activity change, negative = inhibition, actives largely listed as inhibitors | 300,000 compounds, 1.8% hits; active = well fitted inhibition curve with a large enough effect; inconclusive = small, poorly fitted or top-dose-only effect, or effect the other way; inactive = flat fitted curve, though single readings scatter; tested in HEK293 cells; about a fifth of its hits are not listed in these tables; further: on the % scale 0 is the no-effect control and ±100 the full control effect; luciferase read-out
# Lassa entry inh = Lassa virus entry inhibition; Lassa virus pseudotype entry inhibition, cell reporter; control for the full effect not named in the record; Potency, µM (highest dose often 37.9 µM), without a hit: top-dose activity change, negative = inhibition, usual class: inhibitors; 300,000 compounds, 1.2% hits; active means well fitted inhibition curve with a large enough effect; inconclusive means small, poorly fitted or top-dose-only effect, or effect the other way; inactive means flat fitted curve, though single readings scatter; tested in HEK293 cells; further: on the % scale 0 is the no-effect control and ±100 the full control effect; nearly all actives have a fitted effect of over 50% in size; luciferase read-out
# Cruzain inh noDet = cruzain (T. cruzi) inhibition without detergent; P25779; purified cruzain, Z-FR-AMC fluorescence, no detergent; Potency, µM, without a hit: max response, negative = inhibition, actives largely listed as inhibitors; 200,000 compounds, 2.3% hits;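 further: plate controls were enzyme without inhibitor for no effect and buffer without enzyme for full effect; nearly all actives have a fitted effect of over 40% in size; top concentration of the series not given in the record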
# Target sequence (P25779 123-467 limits assumed): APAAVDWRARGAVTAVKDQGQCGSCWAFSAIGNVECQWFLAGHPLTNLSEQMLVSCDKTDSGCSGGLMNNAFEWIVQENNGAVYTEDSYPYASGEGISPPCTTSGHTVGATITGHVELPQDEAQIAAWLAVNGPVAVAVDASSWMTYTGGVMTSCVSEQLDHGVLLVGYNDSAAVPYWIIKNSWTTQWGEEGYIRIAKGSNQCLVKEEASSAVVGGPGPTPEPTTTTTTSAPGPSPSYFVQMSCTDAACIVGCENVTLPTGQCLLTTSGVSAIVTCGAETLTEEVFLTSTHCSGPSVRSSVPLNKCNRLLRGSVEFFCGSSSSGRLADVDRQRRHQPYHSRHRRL
#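 Detergent-free condition (0.00005% Triton X-100) in acetate buffer pH 5.5 with DTT. 1.5 nM enzyme and compound were pre-mixed 15 min, then 2 uM Z-FR-AMC substrate added; reaction progress from fluorescence change between first and third reads (60 s).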
# Cruzain Triton = inhibitors of Trypanosoma cruzi cruzain with detergent | P25779 | purified cruzain, Z-FR-AMC fluorescence, 0.01% Triton | Potency, µM, for inactives: max response, negative = inhibition, hits mostly inhibitors | 200,000 compounds, 0.43% hits;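 further: plate controls were neutral wells for no effect and buffer without enzyme for full effect; nearly all actives have a fitted effect of over 40% in size; top concentration of the series not given in the record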
#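 Cysteine protease activity tested under reducing, mildly acidic conditions (100 mM sodium acetate pH 5.5, 5 mM DTT) plus 0.01% Triton X-100. Cruzain 1.5 nM; substrate Z-FR-AMC 2 uM; 15 min compound preincubation at room temperature.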
# Active calls of the source: *; ? = inconclusive; . = no result given; & = joins results of further samples; [ ] = another dose, or the depositor's remark. Unless noted, the call rests on the fitted dose curve; in most records, active means well fitted curve in the direction sought with a large enough effect; inconclusive means small, poorly fitted or top-dose-only effect, or another doubt; inactive means no such curve, though single readings can be large; an effect the other way counts as inactive or inconclusive. Potency means the concentration at half of the fitted maximal effect.
cpd	SMILES	RE007 growth inh	2A StopGo	SARS PLpro yeast	NS1 function inh	Marburg entry inh	Lassa entry inh	Cruzain inh noDet	Cruzain Triton
1	CC1=C(C(=O)Nc2cc(C)ccn2)C(c2cnn(C)c2)C2=C(CC(c3ccccc3)CC2=O)N1 (configuration not stated)	5.9%	-17.2%	-2.5%	-13.2%	-30.2%	-12.1%	-2.7%	-2.2%
2	O=C(Cc1nc(=O)c2ccccc2s1)Nc1ccccc1	6.3%	63.9%[activator]	-1.1%	-15.4%	?	?	-29.6%	-2.3%
3	COc1cc(/C=N/NC(=O)CN2CCCCC2)ccc1OCc1ccc(Br)cc1	-7.9%	-2.8%	4.0%	9.0%	?	?	3.0%	-5.4%
4	CCCn1c(NC(=O)c2ccc(F)cc2)nc2ccccc21	26.8%	13.2%	-1.7%	.	-11.3%[46.1 µM]	-0.4%	.	.
5	O=C(CCc1nc2ccccc2c(=O)[nH]1)NC1CCN(Cc2ccccc2)CC1	5.0%	13.9%	-5.5%	3.5%	?	1.4%	-1.4%	0.6%
6	Cn1c(O)c(C=NCc2ccco2)c(=O)n(C)c1=O	4.8%	.	7.4%	8.91µM*	5.2%	8.1%	-4.5%	-1.7%
7	CC(=O)Cn1c(=O)c2c(nc3n2CCCN3Cc2ccccc2)n(C)c1=O	1.7%	-19.4%	-11.8%	-16.4%	.	.	.	.
8	COc1ccc(S(=O)(=O)N2CCN(C(=O)N(C)C)C2C)cc1 (configuration not stated)	-18.2%	-18.2%	1.2%	9.1%	-10.0%[46.1 µM]	-0.6%	.	.
9	O=C(NC(=S)Nc1ncccn1)c1ccc(Cl)cc1Cl	0.1%	2.1%	0.6%	.	27.1%[46.1 µM]	19.2%	.	.
10	CC1CCN(S(=O)(=O)c2ccc3c(c2)N(CC(=O)NC(C)C)C(=O)CS3)CC1	.	-9.5%	.	.	-27.0%[46.1 µM]	.	2.8%	-3.2%
11	CCOC(=O)Cn1c(=O)n(C2CCCCC2)c2nc(-c3ccc(CC)cc3)nc(C(N)=O)c21	.	-13.4%	.	.	.	14.8%[46.1 µM]	-7.8%	0.3%
12	O=C(N/N=C/c1cccnc1)c1cccc(NC(=O)c2ccc(Cl)cc2)c1	8.3%	10.5%	3.1%	-13.0%	?	-12.0%[46.1 µM]	.	.
13	CCOc1ccc(C2CC(c3ccc(CC)cc3)Nc3nc(N)nn32)cc1 (configuration not stated)	-3.6%	5.9%	-22.6%	-4.7%	16.9%	11.2%	22.6%	-3.9%
14	NC1=NC2CS(=O)(=O)CC2S1 (configuration not stated)	-11.5%	-9.8%	9.0%	-0.5%	?	3.0%	1.8%	0.6%
15	COCCNC(=O)C1CC2Cn3c(nc4cc5ccccc5cc43)C2N1C (configuration not stated)	-1.4%	-0.1%	-0.2%	8.2%	.	.	.	.

# Rewritten field by field: 4 of the compounds above
13: CCOc1ccc(C2CC(c3ccc(CC)cc3)Nc3nc(N)nn32)cc1 (configuration not stated)
  RE007 growth inh: -3.6%	2A StopGo: 5.9%	SARS PLpro yeast: -22.6%	NS1 function inh: -4.7%	Marburg entry inh: 16.9%	Lassa entry inh: 11.2%	Cruzain inh noDet: 22.6%	Cruzain Triton: -3.9%

10: CC1CCN(S(=O)(=O)c2ccc3c(c2)N(CC(=O)NC(C)C)C(=O)CS3)CC1
  RE007 growth inh: .	2A StopGo: -9.5%	SARS PLpro yeast: .	NS1 function inh: .	Marburg entry inh: -27.0%[46.1 µM]	Lassa entry inh: .	Cruzain inh noDet: 2.8%	Cruzain Triton: -3.2%

9: O=C(NC(=S)Nc1ncccn1)c1ccc(Cl)cc1Cl
  RE007 growth inh: 0.1%	2A StopGo: 2.1%	SARS PLpro yeast: 0.6%	NS1 function inh: .	Marburg entry inh: 27.1%[46.1 µM]	Lassa entry inh: 19.2%	Cruzain inh noDet: .	Cruzain Triton: .

15: COCCNC(=O)C1CC2Cn3c(nc4cc5ccccc5cc43)C2N1C (configuration not stated)
  RE007 growth inh: -1.4%	2A StopGo: -0.1%	SARS PLpro yeast: -0.2%	NS1 function inh: 8.2%	Marburg entry inh: .	Lassa entry inh: .	Cruzain inh noDet: .	Cruzain Triton: .

# Continuation:
cpd	SMILES	RE007 growth inh	2A StopGo	SARS PLpro yeast	NS1 function inh	Marburg entry inh	Lassa entry inh	Cruzain inh noDet	Cruzain Triton
16	CCOc1cc2c(cc1OCC)C(CC(=O)O)N(C(=O)Nc1ccccc1C(F)(F)F)CC2 (configuration not stated)	.	0.8%	.	.	.	8.0%[46.1 µM]	1.4%	-0.1%
17	CCOC(=O)c1c(NC(=O)CC2SC(N)=NC2=O)sc2c1CCC(C)C2 (configuration not stated)	-5.9%	-25.0%	6.4%	27.5%	37.3%	-20.6%	?	-11.7%
18	C=CCn1c(O)c(C=NCCN(C)C)c(=O)[nH]c1=O	-1.0%	0.0%	7.1%	5.9%	5.4%	6.1%	-10.2%	-3.2%
19	O=C(c1cc(C(=O)c2ccco2)cc(C(=O)c2ccco2)c1)c1ccco1	7.4%	-4.6%	-3.0%	-2.1%	-15.5%	5.2%	2.4%	-5.6%
20	CN1C(=O)/C(=C/c2ccccc2Cl)Sc2ccc(C(=O)NCc3cccnc3)cc21	15.4%	39.8µM*	0.1%	.	?	?	.	.
21	CCCCNC(=O)c1[nH]c(C)c(C(C)=O)c1C	2.5%	26.0%	-0.5%	.	-12.8%[46.1 µM]	-16.7%[46.1 µM]	.	.
22	O=C(Nc1ccc(O)cc1)N1CCOCC1	-10.8%	10.3%	-8.7%	3.7%	.	.	.	.
23	CCOc1ccccc1NC(=O)CCCCCN1C(=O)[C@@H]2Cc3ccccc3CN2C1=O	2.6%	?	-2.6%	-25.1%	.	.	.	.
24	COc1cccc(OCc2cc(C(=O)N(Cc3ccccc3)CC3CC3)no2)c1	3.7%	-10.8%	4.1%	-10.2%	.	.	.	.
25	CCCCSc1nc2sc3c(c2c(=O)n1-c1ccccc1)CCN(C)C3	7.7%	-29.3%	-1.3%	0.0%	.	.	.	.
26	CC1CCN(S(=O)(=O)c2cc3c4c(c2)CC(=O)N4CCC3)CC1	.	-21.0%	.	.	.	23.5%[46.1 µM]	6.8%	-0.6%
27	CN(CC(=O)Nc1cccc(F)c1)C(=O)c1ccccc1Cc1ccccc1	16.6%	-9.5%	-4.3%	.	?	-3.8%	.	.
28	O=C(CSc1ccc(-c2ccccn2)nn1)N1CCCCC1	7.4%	54.2%[activator]	-2.8%	.	3.2%[46.1 µM]	-0.7%	.	.
29	CCOC(=O)c1oc2ccccc2c1NC(=O)c1ccco1	3.5%	?	2.8%	-10.1%	.	.	.	.
30	CC(=O)c1cc(C#N)c(N2CCN(C)CC2)nc1C	-4.7%	-6.7%	-1.1%	.	4.5%[14.2 µM]	15.4%	.	.
31	COc1ccc(Oc2cn[nH]c2-c2ccc(OC)cc2O)cc1	-8.8%	-12.4%	-9.9%	-65.9%	-11.1%[46.1 µM]	?	.	.
32	CCOc1ncccc1C(=O)OCc1c(F)cccc1Cl	19.1%	20.6%	2.9%	.	10.0%[46.1 µM]	12.7%	.	.
33	Nc1cccnc1-n1nc(C(F)(F)F)cc1C(F)(F)F	-3.0%	-0.1%	0.1%	.	-1.2%[46.1 µM]	9.2%	.	.
34	O=C(O)CN(c1ccccn1)S(=O)(=O)c1ccc(Cl)cc1	4.0%	-22.1%	11.2%	5.9%	7.0%	8.7%	-6.3%	-2.3%
35	CCOC(=O)C1CCN(C(=O)CN(c2ccc(Oc3ccccc3)cc2)S(C)(=O)=O)CC1	-17.4%	-23.6%	0.3%	-6.5%	-21.6%[46.1 µM]	?	.	.
36	COC(=O)c1cn(C(=O)c2cc(OC)c(OC)c(OC)c2)c2ccccc12	4.7%	-9.0%	-4.4%	11.5%	0.4%[46.1 µM]	-14.5%[46.1 µM]	.	.
37	CN(C)P(=O)(N(C)C)N1CC1	-13.5%	-0.2%	.	.	-20.2%[46.1 µM]	14.4%[46.1 µM]	.	.
38	CCN(CC)c1ccc(NC(=O)c2ccc3c(c2)c(C)c(C)n3C)cc1	5.6%	1.0%	-8.2%	.	?	.	.	.
39	O=C(CCC(=O)c1ccc(F)cc1)Nc1ccc(Cl)cc1	.	-9.5%	.	.	.	-23.0%[46.1 µM]	-10.2%	-1.5%
40	COc1ccc(Br)c2oc(SC)cc(=O)c12	-5.9%	-11.7%	-21.1%	-24.0%	2.5%	-1.4%	1.6%&-5.4%	-2.1%&-4.2%
41	Cc1sc2c(c1C)c(=O)n(-c1ccc(Cl)cc1)c(=O)n2CC(=O)c1ccccc1	.	-22.1%	.	.	-2.6%[46.1 µM]	-0.3%[46.1 µM]	-6.7%	0.0%
42	COc1ccccc1NS(=O)(=O)c1ccc(Cl)c(NC(=O)C(C)N2C(=O)c3ccccc3C2=O)c1 (configuration not stated)	12.0%	6.8%	-15.8%	?	0.4%	5.6%	-26.7%	-7.8%
43	COc1ccc(C2c3[nH]c4ccccc4c3C[C@H]3C(=O)N(c4ccccc4C(=O)N4CCC[C@H]4C(=O)O)C(=O)N23)cc1 (some centres not stated)	0.7%	-16.8%	4.2%	18.2%	.	.	.	.
44	Cc1ccc(O)c(CNc2nc3ccccc3n2C(C)C)c1	-8.4%	-12.3%	7.9%	3.3%	.	.	.	.
45	Cc1cc2c(ncn2C(C)C)c(NS(=O)(=O)c2ccc(F)cc2)c1C	0.6%	0.0%	-3.8%	.	1.5%[46.1 µM]	-8.9%	.	.
46	Cc1cc(=O)n2nc(N3CCCC(C(=O)NCc4ccc(Cl)cc4)C3)sc2n1 (configuration not stated)	-3.8%	-2.0%	-2.2%	17.9%	.	.	.	.
47	CC(C)(C)C(=O)NC(n1cnc2c(N3CCOCC3)ncnc21)C(Cl)(Cl)Cl (configuration not stated)	4.7%	-22.6%	-0.5%	-5.8%	6.5%[46.1 µM]	-0.1%	.	.
48	COc1cc(C(C)=O)ccc1Oc1ncnc2c1cnn2-c1ccc(C)c(C)c1	?	-17.5%	-14.8%	-5.2%	?	-21.4%	?	-5.9%
